Assay outcomes deposited in PubChem BioAssay by National Center for Advancing Translational Sciences (NCATS).
Methyltransferases – Primary Screen for Target Class Profiling of Small Molecule Inhibitors of Methyltransferases; purified enzyme, MTase-Glo SAH luminescence; hits give low values; calls only at 40 µM; 25,000 compounds, 3.9% hits; active = -50% or lower on at least one of six enzymes; inconclusive = the cases between; inactive = as a rule above -30% on all six;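 note: enzymes were COMT GAMT GNMT HNMT NNMT and PNMT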
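Each enzyme was reacted with SAM and its substrate, with compounds tested once at 40 uM; SAH formed was read by MTase-Glo luminescence.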
Calls only; i = inactive; ? = inconclusive; + = active, no number; ! = a repeat was not active. % is set by controls: 0 for no effect and ±100 for the full control effect.

SMILES	Methyltransferases
CCCN1C(=O)c2c(C(=O)NCCCc3ccccc3)ncn2CC1(C)C(=O)NCCC(C)C (configuration not stated)	i
COc1ccc(CNC(=O)[C@H]2CNC[C@H](C(=O)N3CCCC3)C2)c(F)c1F	i
CC(C)c1ccc2c(c1)c(SC(C)(C)C)c(CC(C)(C)C(=O)O)n2Cc1ccc(Cl)cc1	?
CCc1ccc(N2C(=O)c3cc4oc(C)cc4n3CC2(C)C(=O)NC2CCCCCC2)cc1 (configuration not stated)	i
O=C(C1OC1/C=C/c1ccc2c(c1)OCO2)N1CCCCC1 (configuration not stated)	i
OCC1OC(Oc2cc(O)cc(/C=C/c3ccc(O)cc3)c2)C(O)C(O)C1O (configuration not stated)	?
COc1ccc2cc3n(c2c1)CC(C)(C(=O)NC1CCCCCC1)N(c1ccccc1F)C3=O (configuration not stated)	i
Cn1c(=O)n(C)c2cc(S(=O)(=O)Nc3cccc4c3CCCC4)ccc21	i
C=C(COC(=O)C(C)C)C1Oc2cc(C(C)=O)ccc2C1OC(=O)C(C)C (configuration not stated)	i
CN(Cc1cccnc1)C1CCCc2ccccc21 (configuration not stated)	i
O=C(O)c1ccc(-c2nc3ccncc3[nH]2)cc1	?
CC(C)n1c(=O)c2ccc(C(=O)NC3CCCCC3)cc2n2c(=O)n(Cc3ccc(F)cc3)nc12	i
COc1ccc(C(=O)N2CCOCCNC(=O)CC2)c(OC)c1	i
CCc1ccccc1N1C(=O)c2c(C(=O)OC)ncn2CC1(C)C(=O)NC1CCCCCC1 (configuration not stated)	i
COCCNC(=S)N[C@H]1C[C@H]2C(=O)NC[C@@H](CCC(=O)NCc3ccccc3)N2C1	i
C[S+](=O)([O-])N1C2CCC1CN(c1ccc(C(F)(F)F)cc1)C2	i
CCCn1c(=O)c2cc(F)ccc2n2c(SCc3ccccc3)nnc12	i
CN1C(=O)c2cc(C(=O)NCc3cccc(Cl)c3)nn2CC1(C)C(=O)NC1CCCC1 (configuration not stated)	i
O=C(Cc1ccccc1)NCC1CCCCC(=O)N1 (configuration not stated)	i
Cc1cc2c(cc3n2CC(C)(C(=O)NC2CCCCC2)N(Cc2cccc(F)c2)C3=O)o1 (configuration not stated)	i
CCc1ccc(C(=O)NC(Cc2c[nH]c3ccccc23)C(=O)OCC(=O)c2ccccc2)cc1 (configuration not stated)	i
CCOC(=O)c1cc2n(n1)CC(C)(C(=O)NCc1ccccc1)N(Cc1ccc(OC)cc1OC)C2=O (configuration not stated)	i
CCCC1c2cccn2CCN1C(=O)Nc1cccc(SC)c1 (configuration not stated)	i
CSc1ccc(CNC(=O)CCn2ccc3cc(S(=O)(=O)N4CCCC4)ccc32)cc1	i
Cc1ccc(Cn2c(=O)c3ccccc3n3c(CCC(=O)Nc4cc(C)cc(C)c4)nnc23)cc1	i
COc1ccc(-c2cc3ncc(C)n3c(Nc3ncccc3C(N)=O)n2)cc1OC	i
CC(=O)N[C@@H](Cc1c[nH]c2ccccc12)C(=O)N[C@@H](CCC(=O)O)C(=O)N[C@@H](Cc1cnc[nH]1)C(=O)N[C@@H](CC(=O)O)C(=O)Nc1ccc2c(C(F)(F)F)cc(=O)oc2c1	i
C[S+](=O)([O-])N1CC2(CCN(Cc3ccc(Cl)cc3)C2)Cc2ccccc21 (configuration not stated)	i
CCCn1c(=O)c2ccc(C(=O)NC(C)C)cc2n2c(=O)n(CC(=O)Nc3ccc(C)cc3C)nc12	i
Cn1nccc1CCC(=O)N1CCN(C(=O)C2CCC2)[C@@H]2CS(=O)(=O)C[C@@H]21	i
COc1ccccc1-n1cnc2cccnc21	i
COc1ccccc1CN1CCCC(CN(CCN(C)C)C(=O)c2ccccc2OC)C1 (configuration not stated)	i
CC1CCCC(NC(=O)C2c3cccn3CC(=O)N2c2ccc(Cl)cc2)C1C (configuration not stated)	i
CCCn1c(=O)c2ccc(Cl)cc2n2c(=O)n(CC(=O)c3ccc(OCC)cc3)nc12	i
CCN(CC)CCNC(=O)c1ccc(NC(C)=O)cc1	i
O=C(OCc1ccccc1)N1CCC2(CC1)C(=O)NN=C2C1CC1	i
CCOc1ccccc1CNC(=O)c1cc2n(n1)CC(C)(C(=O)NC1CCCCC1)N(C)C2=O (configuration not stated)	i
CCC(C)NC(=O)c1ccc2c(=O)n(CCC(C)C)c3nn(CC(=O)Nc4ccccc4)c(=O)n3c2c1 (configuration not stated)	i
Cc1cccc(NC(=O)Cn2nc3n(CCC(C)C)c(=O)c4ccc(C(=O)NC(C)C)cc4n3c2=O)c1	i
CC1(C)Cc2nc(C(C)(C)C)ncc2C(NC(=O)CCCN2CCCC2=O)C1 (configuration not stated)	i
C[C@@H]1CC[C@H]2C(C)(C)[C@H](O)[C@H](O)C[C@]2(C)[C@@]12Cc1c(O)cc3c(c1O2)CNC3=O	i
C=C[C@H]1[C@H](O[C@@H]2O[C@H](CO)[C@@H](O)[C@H](O)[C@H]2O)OC=C(C(=O)OC)[C@H]1CCOC(=O)c1cc(O)c(O)c(O)c1	+
COC1C(=O)CCC2(CO2)C1(O)C1(C)OC1CC=C(C)C (configuration not stated)	i
COC(=O)C1=C(C)NC(C)=C(C(=O)OC)C1c1cccc(NC(=O)NCCCN2CCC(c3cccc(OC)c3)CC2)c1	+!
O=C(CC1CCCC1)N1C[C@@H](CO)[C@@H]2Oc3ccc(Cl)cc3[C@@H]21	i
CCOCCOC1CCN(C(=O)c2cnccn2)CC1	i
COc1c(C)c2c(c(O)c1C/C=C(\C)CC/C=C(\C)CCC(=O)O)C(=O)OC2	i
CCn1c(=O)c2c(cc(C)n2C)n(CC(=O)Nc2ccccc2C)c1=O	i
COC(=O)c1ncn2c1C(=O)N(Cc1ccccc1)C(C)(C(=O)NC1CCCCCC1)C2 (configuration not stated)	i
CN(CC1CCCCO1)C(=O)c1coc(COc2ccc3c(c2)OCO3)n1 (configuration not stated)	i
(next part)
SMILES	Methyltransferases
CN1C(=O)[C@H]2CN(Cc3cn[nH]c3-c3cccs3)C[C@H]2C1=O	i
CN1C(=O)c2cc(C(=O)NCc3ccccc3F)nn2CC1(C)C(=O)NCc1ccccc1 (configuration not stated)	i
COC1CCOC2(CCN(C(=O)Cc3ccccc3)CC2)C1 (configuration not stated)	i
Cc1ccc2c(c1)c1c3n2CCN(CC(O)CNC(C)C)C3CCC1 (configuration not stated)	i
O=C(CCc1nnc2n(Cc3ccccc3Cl)c(=O)c3ccccc3n12)Nc1ccc(F)cc1	i
COc1cccc(N2C(=O)c3cc(-c4cccs4)nn3CC2(C)C(=O)NC2CCCCC2)c1 (configuration not stated)	i
CN(CC[C@H]1CN(C(=O)C(C)(C)C)CC[C@H]1CC(=O)O)c1ccccc1	i
CCNC(=O)N1CCCCCCNC(=O)[C@@H]2C[C@@H](c3nc(Cc4ccccc4)no3)C[C@@H]21	i
Cn1cc(CN2C[C@H](C(=O)Nc3ccc(F)cc3)C[C@@H]2c2cccc(C(F)(F)F)c2)cn1	i
O=C(c1cccnc1)N1C[C@@H]2OCC(=O)N(c3ccccc3)[C@@H]2C1	i
CN(C)c1ccc(NC(=O)NS(=O)(=O)c2ccc(Cl)cc2)cc1	+
O=C(c1ccccc1Cl)N1CCCC(C(=O)N2CCC(c3ccccc3)CC2)C1 (configuration not stated)	i
O=C1NCc2ccccc2CC12CCN(Cc1ccsc1)C2 (configuration not stated)	i
CC1(C(=O)NCc2ccccc2Cl)Cn2cnc(C(=O)NCCCc3ccccc3)c2C(=O)N1C1CC1 (configuration not stated)	i
COc1ccc([C@H]2Cc3cccc(O)c3C(=O)O2)cc1OC	i
CN1CCC(NC(=O)c2cc(-c3c(O)cc(O)cc3Oc3ccc([N+](=O)[O-])cc3)on2)CC1	i
CCc1cc2c(cc3n2CC(C)(C(=O)NC2CCCCCC2)N(CCCN2CCCCC2)C3=O)s1 (configuration not stated)	i
CC1(O)CC(O)C2C(C(=O)O)=COC(OC3OC(CO)C(O)C(O)C3OC(=O)/C=C/c3ccc(O)cc3)C21 (configuration not stated)	i
CC(=O)Nc1c2n(c3ccccc13)CC(C)(C(=O)NC1CCCCC1)N(Cc1ccccc1C)C2=O (configuration not stated)	i
COc1ccc(Cl)cc1NC(=O)N1CCn2cccc2C1C (configuration not stated)	i
Cc1nn(C)cc1CN(C)C(=O)c1cc2cn(C(C)C)cc2s1	i
C[C@@H]1O[C@@H](O[C@H]2[C@H](O)[C@@H](O)[C@H](OC[C@H]3O[C@@H](OC(=O)[C@]45CCC(C)(C)C[C@H]4C4=CCC6[C@@]7(C)C[C@H](O)[C@H](O[C@@H]8O[C@H](CO)[C@@H](O)[C@H](O)[C@H]8O)[C@@](C)(C(=O)O)C7CC[C@@]6(C)[C@]4(C)CC5)[C@H](O[C@@H]4O[C@H](CO)[C@@H](O)[C@H](O)[C@H]4O)[C@@H](O)[C@@H]3O)O[C@@H]2CO)[C@H](O)[C@H](O)[C@H]1O (some centres not stated)	i
Cc1c(Cl)cccc1NC(=O)Cn1c(=O)oc2cc(S(=O)(=O)N3CCCC3)ccc21	i
CCOC(=O)c1ccc(N2C(=O)CSc3c(c4ccccc4n3C)C2C(=O)NCc2ccccc2)cc1 (configuration not stated)	i
CCOc1ccccc1CN1C(=O)c2cc3ccccc3n2CC1(C)C(=O)NCc1ccccc1 (configuration not stated)	i
COC(=O)/C=C/C12COC(C)(C)C1C(O)C(OC(C)=O)C1(C)C2CCC2(C)C(c3ccoc3)OC(=O)C3OC321 (configuration not stated)	i
O=C(c1ccc(F)cc1)N1CCCC(c2nc(-c3ccc(F)cc3)no2)C1 (configuration not stated)	?
C[C@H]1/C=C/C=C/C=C/C=C/C=C/[C@@H](O)[C@H](C(=O)O)[C@H](O)C[C@H](O)CCC[C@H](O)C[C@H](O)C[C@H](O)[C@@H](C)C(=O)O[C@@H]1C	i
NC(=O)c1cccc(-c2cc(OC(=O)NC3CCCCC3)ccc2O)c1	i
Cc1ccc(CCN2C(=O)CSc3c(c4ccccc4n3C)C2C(=O)NCc2ccccc2)cc1 (configuration not stated)	i
CC1CCCC[C@H]2C(=O)C=C[C@H](O)[C@@H]2CC(=O)O1 (some centres not stated)	i
C/C(=C\CCC(C)(C)O)CCO[C@@H]1O[C@H](CO[C@@H]2O[C@@H](C)[C@H](O)[C@@H](O)[C@H]2O)[C@@H](O)[C@H](O)[C@H]1O	i
COC(=O)NCC(=O)N1CC[C@@H]2[C@@H](CCC(=O)N2CCc2ccccc2)C1	i
CCO[C@H]1CN(C2CCN(CCc3ccccc3)CC2)C[C@@H]1O	i
Cc1cccc(N2C(=O)CSc3c(c4ccccc4n3C)C2C(=O)NCCCOC(C)C)c1C (configuration not stated)	i
O=C(O)c1ccnc(-c2ccnc(NCCCN3CCCC3=O)n2)c1	i
CCNC(=O)[C@@H]1CCCN1C(C)(C)C(=O)NC	i
CC(C)Cn1c(=O)c2ccccc2n2c(=O)n(CC(=O)Nc3ccccc3F)nc12	i
CC(C)(C)c1ccc(C(=O)NC(Cc2c[nH]c3ccccc23)C(=O)OCC(=O)c2ccc(Cl)cc2)cc1 (configuration not stated)	i
O=C(NCCN1CCN(c2cccc3ccc(O)cc23)CC1)c1ccc(F)cc1	i
CC(C)CCNC(=O)[C@H]1CN(Cc2ccccc2)C[C@H]1C(=O)O	i
CCO[C@H]1CN(C(=O)Cc2ccccc2OCc2ccccc2)C[C@@H]1O	i
COCCNC(=O)C1CCc2sc(C(=O)N(C)C)cc2C1 (configuration not stated)	i
CN1C(=O)c2cc3ccccc3n2CC1(C)C(=O)NCC(=O)NCCc1ccco1 (configuration not stated)	i
CC1(CCOC2OC(CO)C(O)C(O)C2O)CCC23OC2(C1)C(O)CC1C(C)(C(=O)O)CCCC13C (configuration not stated)	i
O=C(NCC1CCOCC1)C1COc2ccccc2O1 (configuration not stated)	i
CC1CC=C2C1CC1(O)C(=O)CC2(C)C1(C)CO (configuration not stated)	?
COCCC1(C(=O)O)CCCN(Cc2cn[nH]c2C2CCCCC2)C1 (configuration not stated)	i
CCCCc1nc(Cl)c(CO)n1Cc1ccc(-c2ccccc2-c2nn[nH]n2)cc1	?
Cc1c2cc(c(C(=O)O)c1C)OC1OC(C(O)C(O)C1O)C(O)C(O)C1OC(O2)C(O)C(O)C1O (configuration not stated)	?
Cc1ccc(NS(=O)(=O)c2ccc3c(c2)CCC(=O)N3)cc1C	?

Part of the list above in order of SMILES length, rising:
SMILES	Methyltransferases
O=C(NCC1CCOCC1)C1COc2ccccc2O1 (configuration not stated)	i
CC1CC=C2C1CC1(O)C(=O)CC2(C)C1(C)CO (configuration not stated)	?
COCCNC(=O)C1CCc2sc(C(=O)N(C)C)cc2C1 (configuration not stated)	i
COCCC1(C(=O)O)CCCN(Cc2cn[nH]c2C2CCCCC2)C1 (configuration not stated)	i
Cc1ccc(NS(=O)(=O)c2ccc3c(c2)CCC(=O)N3)cc1C	?
CC(C)CCNC(=O)[C@H]1CN(Cc2ccccc2)C[C@H]1C(=O)O	i
CCO[C@H]1CN(C(=O)Cc2ccccc2OCc2ccccc2)C[C@@H]1O	i
CN1C(=O)c2cc3ccccc3n2CC1(C)C(=O)NCC(=O)NCCc1ccco1 (configuration not stated)	i
CCCCc1nc(Cl)c(CO)n1Cc1ccc(-c2ccccc2-c2nn[nH]n2)cc1	?
CC1(CCOC2OC(CO)C(O)C(O)C2O)CCC23OC2(C1)C(O)CC1C(C)(C(=O)O)CCCC13C (configuration not stated)	i
Cc1c2cc(c(C(=O)O)c1C)OC1OC(C(O)C(O)C1O)C(O)C(O)C1OC(O2)C(O)C(O)C1O (configuration not stated)	?
CC(C)(C)c1ccc(C(=O)NC(Cc2c[nH]c3ccccc23)C(=O)OCC(=O)c2ccc(Cl)cc2)cc1 (configuration not stated)	i

Not all compounds are listed; the hit share may differ from the screen's.
